# KCNQ2 enhance = enhances the rat KCNQ2 potassium channel; AID 2239; O88943; 310,000 compounds, 0.54% hits; B-score at 10 µM; CHO-K1 KCNQ2, FluxOR thallium flux fluorescence; stronger effect = higher value;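 active means fluorescence ratio B-score at least 3 SD of library B-scores, with initial fluorescence B-score within 3 SD, cut at about 5.3 in these data; same plate scores as AID 2156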;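 further: B-score of peak minus minimum over baseline fluorescence ratio after K+ and Tl+ stimulus; positive B-score means potentiation of KCNQ2 with more thallium influx and brighter signal; only the inactives scoring about 0 or higher are listed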
# Target sequence (O88943 whole entry, looked up): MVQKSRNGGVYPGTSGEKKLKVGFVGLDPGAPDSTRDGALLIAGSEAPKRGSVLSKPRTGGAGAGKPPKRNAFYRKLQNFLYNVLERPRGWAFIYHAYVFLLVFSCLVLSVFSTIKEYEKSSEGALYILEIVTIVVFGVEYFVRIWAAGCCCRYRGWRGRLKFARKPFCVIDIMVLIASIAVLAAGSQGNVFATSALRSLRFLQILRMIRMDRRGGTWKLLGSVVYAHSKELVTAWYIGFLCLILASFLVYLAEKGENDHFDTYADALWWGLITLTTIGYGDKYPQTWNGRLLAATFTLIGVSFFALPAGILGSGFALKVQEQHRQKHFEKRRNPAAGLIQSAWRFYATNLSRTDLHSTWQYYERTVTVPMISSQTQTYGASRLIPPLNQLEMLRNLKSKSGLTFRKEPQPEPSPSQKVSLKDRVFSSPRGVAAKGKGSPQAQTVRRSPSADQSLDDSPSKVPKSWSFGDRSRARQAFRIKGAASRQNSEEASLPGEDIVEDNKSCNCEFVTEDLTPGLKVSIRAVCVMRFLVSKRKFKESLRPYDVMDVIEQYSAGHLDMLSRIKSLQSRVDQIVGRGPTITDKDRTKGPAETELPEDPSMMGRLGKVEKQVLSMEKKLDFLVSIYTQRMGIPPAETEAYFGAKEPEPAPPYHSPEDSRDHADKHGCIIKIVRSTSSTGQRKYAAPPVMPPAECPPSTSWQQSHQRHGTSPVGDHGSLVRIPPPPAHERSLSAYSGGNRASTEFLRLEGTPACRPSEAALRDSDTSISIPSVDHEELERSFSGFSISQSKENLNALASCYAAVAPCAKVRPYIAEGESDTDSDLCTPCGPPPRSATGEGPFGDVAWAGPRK
# KCNQ2 enhance baseline = further read-out of KCNQ2 enhance, marked with its call; B-score; compound at 10 µM; measured here: initial fluorescence intensity artifact check;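 brightness before thallium and not channel activity; 0 = typical well and far values either way flag optical interference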
# An asterisk follows results filed as active. Some of the compounds tested; the hit share may differ from the screen's.
COc1cc(CO)c(Br)cc1OCC(=O)Nc1ccccc1C
  KCNQ2 enhance: 0.25; KCNQ2 enhance baseline: 0.72

CCn1c(=O)n(CC)c2cc(NC(=O)C(C)c3ccccc3)c(Br)cc21 (stereo not given)
  KCNQ2 enhance: 22*; KCNQ2 enhance baseline: 2.4*

CCCC(=O)c1cc2cc(Cl)ccc2oc1=O
  KCNQ2 enhance: 1.1; KCNQ2 enhance baseline: 1.2

COc1ccc(CNC(=O)CSc2nc3nc(C)cc(C)n3n2)cc1
  KCNQ2 enhance: 1.3; KCNQ2 enhance baseline: -1.4

CN1CCC(NC(=O)c2cccs2)CC1
  KCNQ2 enhance: 0.42; KCNQ2 enhance baseline: 0.58

COc1cccc(CC(=O)OC(C)C(=O)Nc2ccc(N3CCOCC3)cc2)c1 (stereo not given)
  KCNQ2 enhance: 1.4; KCNQ2 enhance baseline: -0.98

CCCCN(CC)CCNC(=O)c1cc2c(=O)[nH]c3ccccc3c2n1C
  KCNQ2 enhance: 0.7; KCNQ2 enhance baseline: 1.1

COc1cc(NC(=O)CCCSc2nc(-c3ccco3)cc(C(F)(F)F)n2)cc(OC)c1OC
  KCNQ2 enhance: 1.4; KCNQ2 enhance baseline: -0.21

CN(Cc1ccccc1)C(=O)c1cc(=O)[nH]c2ccccc12
  KCNQ2 enhance: 0.4; KCNQ2 enhance baseline: 0.71

Cc1ccc(NC(=O)c2scc3c2CCCC3)cc1
  KCNQ2 enhance: 0.87; KCNQ2 enhance baseline: -0.81

CCC(C)c1c(O)nc(SCC(=O)N2CCOCC2)[nH]c1=O (stereo not given)
  KCNQ2 enhance: 1.9; KCNQ2 enhance baseline: 0.38

CCCOc1ccc(C2C(C(=O)c3ccc(C)o3)=C(O)C(=O)N2Cc2ccco2)cc1 (stereo not given)
  KCNQ2 enhance: 2.1; KCNQ2 enhance baseline: -0.81

N#Cc1c(-c2ccccc2Cl)c2c([nH]c1=O)-c1ccccc1OC2
  KCNQ2 enhance: 0.08; KCNQ2 enhance baseline: -1.2

O=C(Nc1ccc(F)cc1)c1cccnc1
  KCNQ2 enhance: 1.1; KCNQ2 enhance baseline: 2.1

Cc1cccc(CNC(=O)CCn2ccc3cc(S(=O)(=O)N4CCCC4)ccc32)c1
  KCNQ2 enhance: 0.04; KCNQ2 enhance baseline: -2.1

Cc1ccc(-c2[nH]ncc2C(=O)c2ccc(Br)cc2)c(O)c1
  KCNQ2 enhance: 0.16; KCNQ2 enhance baseline: 0.4

COc1cccc(Nc2c(F)c(OC)c(F)c(F)c2C(=O)O)c1
  KCNQ2 enhance: 0.24; KCNQ2 enhance baseline: 1.9

Cc1onc(-c2c(Cl)cccc2Cl)c1C(=O)N1C(C)CCCC1C (stereo not given)
  KCNQ2 enhance: 0.71; KCNQ2 enhance baseline: 0.14

COc1c(C(C)C)cc(NC(C)=O)cc1C(C)C
  KCNQ2 enhance: 2; KCNQ2 enhance baseline: -1.1

CCOc1ccc(CCNC(=O)CN2C(=O)c3cccnc3Oc3ccc(C)cc32)cc1OCC
  KCNQ2 enhance: 0.29; KCNQ2 enhance baseline: 1.4

Cn1ccs/c1=N\C(=O)Nc1ccccc1
  KCNQ2 enhance: 0.7; KCNQ2 enhance baseline: -4

CCc1nnc(NS(=O)(=O)c2ccc(NC(=S)NC(=O)/C=C/c3ccc(F)cc3)cc2)s1
  KCNQ2 enhance: 0.02; KCNQ2 enhance baseline: -1.2

O=C(CCS(=O)(=O)c1cc(Br)cc2c1N(C(=O)C1CC1)CC2)N1CCN(c2ccccn2)CC1
  KCNQ2 enhance: 0.44; KCNQ2 enhance baseline: 1.1

CC1(C)CC(=O)C=C(Nc2cccc(O)c2)C1
  KCNQ2 enhance: 1.2; KCNQ2 enhance baseline: 2.5

O=C(CCc1ccccc1)NNC(=O)c1cc(Cl)ccc1O
  KCNQ2 enhance: 0.33; KCNQ2 enhance baseline: 0.03

# Arranged by heavy-atom count (low to high): some entries from above.
CN1CCC(NC(=O)c2cccs2)CC1
  KCNQ2 enhance: 0.42; KCNQ2 enhance baseline: 0.58

Cn1ccs/c1=N\C(=O)Nc1ccccc1
  KCNQ2 enhance: 0.7; KCNQ2 enhance baseline: -4

CC1(C)CC(=O)C=C(Nc2cccc(O)c2)C1
  KCNQ2 enhance: 1.2; KCNQ2 enhance baseline: 2.5

COc1c(C(C)C)cc(NC(C)=O)cc1C(C)C
  KCNQ2 enhance: 2; KCNQ2 enhance baseline: -1.1

Cc1ccc(NC(=O)c2scc3c2CCCC3)cc1
  KCNQ2 enhance: 0.87; KCNQ2 enhance baseline: -0.81

CN(Cc1ccccc1)C(=O)c1cc(=O)[nH]c2ccccc12
  KCNQ2 enhance: 0.4; KCNQ2 enhance baseline: 0.71

COc1cccc(Nc2c(F)c(OC)c(F)c(F)c2C(=O)O)c1
  KCNQ2 enhance: 0.24; KCNQ2 enhance baseline: 1.9

Cc1onc(-c2c(Cl)cccc2Cl)c1C(=O)N1C(C)CCCC1C (stereo not given)
  KCNQ2 enhance: 0.71; KCNQ2 enhance baseline: 0.14

COc1ccc(CNC(=O)CSc2nc3nc(C)cc(C)n3n2)cc1
  KCNQ2 enhance: 1.3; KCNQ2 enhance baseline: -1.4

CCn1c(=O)n(CC)c2cc(NC(=O)C(C)c3ccccc3)c(Br)cc21 (stereo not given)
  KCNQ2 enhance: 22*; KCNQ2 enhance baseline: 2.4*

CCCCN(CC)CCNC(=O)c1cc2c(=O)[nH]c3ccccc3c2n1C
  KCNQ2 enhance: 0.7; KCNQ2 enhance baseline: 1.1

COc1cccc(CC(=O)OC(C)C(=O)Nc2ccc(N3CCOCC3)cc2)c1 (stereo not given)
  KCNQ2 enhance: 1.4; KCNQ2 enhance baseline: -0.98

Cc1cccc(CNC(=O)CCn2ccc3cc(S(=O)(=O)N4CCCC4)ccc32)c1
  KCNQ2 enhance: 0.04; KCNQ2 enhance baseline: -2.1

CCCOc1ccc(C2C(C(=O)c3ccc(C)o3)=C(O)C(=O)N2Cc2ccco2)cc1 (stereo not given)
  KCNQ2 enhance: 2.1; KCNQ2 enhance baseline: -0.81

CCc1nnc(NS(=O)(=O)c2ccc(NC(=S)NC(=O)/C=C/c3ccc(F)cc3)cc2)s1
  KCNQ2 enhance: 0.02; KCNQ2 enhance baseline: -1.2

COc1cc(NC(=O)CCCSc2nc(-c3ccco3)cc(C(F)(F)F)n2)cc(OC)c1OC
  KCNQ2 enhance: 1.4; KCNQ2 enhance baseline: -0.21

CCOc1ccc(CCNC(=O)CN2C(=O)c3cccnc3Oc3ccc(C)cc32)cc1OCC
  KCNQ2 enhance: 0.29; KCNQ2 enhance baseline: 1.4

# The main list resumes, starting two compounds before the break.
CC1(C)CC(=O)C=C(Nc2cccc(O)c2)C1
  KCNQ2 enhance: 1.2; KCNQ2 enhance baseline: 2.5

O=C(CCc1ccccc1)NNC(=O)c1cc(Cl)ccc1O
  KCNQ2 enhance: 0.33; KCNQ2 enhance baseline: 0.03

CC(C)COC(=O)CCn1[nH]c(=O)c2ccccc2c1=O
  KCNQ2 enhance: 0.57; KCNQ2 enhance baseline: -1.2

COCCN(C(=O)COC(=O)/C=C/c1ccc(C)o1)c1c(N)n(Cc2ccccc2)c(=O)[nH]c1=O
  KCNQ2 enhance: 0.91; KCNQ2 enhance baseline: 0.69

Cn1c(=O)[nH]c(=O)c2c1nc(SCC(=O)O)n2CCCc1ccccc1
  KCNQ2 enhance: 2.5; KCNQ2 enhance baseline: -2.3

CCOc1ncccc1C(=O)N1CCN(Cc2ccc3c(c2)OCO3)CC1
  KCNQ2 enhance: 0.86; KCNQ2 enhance baseline: -0.2

CC12C=CC3(CN(Cc4ccccc4)C(=O)C3C1C(=O)NC1CC1)O2 (stereo not given)
  KCNQ2 enhance: 0.1; KCNQ2 enhance baseline: 0.67

Cc1[nH]c(=S)[nH]c(=O)c1Cc1ccccc1
  KCNQ2 enhance: 0.19; KCNQ2 enhance baseline: 1.4

CC(C)OC(=O)CC1C(=O)NCCN1C(=O)COc1ccc(C(C)(C)C)cc1 (stereo not given)
  KCNQ2 enhance: 0.38; KCNQ2 enhance baseline: 0.47

COc1cc(C2NC(=O)NC(C)=C2C(=O)OCc2ccc(C)cc2)cc(OC)c1O (stereo not given)
  KCNQ2 enhance: 0.31; KCNQ2 enhance baseline: -1.5

Cc1c(C(=O)N2CCCC2)c(S(=O)(=O)Nc2cccc(Br)c2)c(C)n1C
  KCNQ2 enhance: 0.02; KCNQ2 enhance baseline: -1.3

CCCCC1CCC(C(=O)N(CCOC)c2c(N)n(CCCC)c(=O)[nH]c2=O)CC1 (stereo not given)
  KCNQ2 enhance: 0.62; KCNQ2 enhance baseline: 1.5

O=C(O)CCc1nnc(SCC(=O)Nc2ccc(Cl)c(C(F)(F)F)c2)[nH]c1=O
  KCNQ2 enhance: 0.28; KCNQ2 enhance baseline: 1.8

CCOC(=O)c1cnc(-n2[nH]c(C)c(Cc3ccccc3)c2=O)[nH]c1=O
  KCNQ2 enhance: 0.23; KCNQ2 enhance baseline: -0.65

COC(=O)c1cc(=O)nc2sc(-c3ccc(F)cc3)nn12
  KCNQ2 enhance: 1.4; KCNQ2 enhance baseline: 1.2

COc1ccc(NC(=O)COC(=O)/C=C/c2ccccc2[N+](=O)[O-])cc1OC
  KCNQ2 enhance: 0.67; KCNQ2 enhance baseline: -0.21

CN(c1cccc(NS(=O)(=O)c2cccs2)c1)S(C)(=O)=O
  KCNQ2 enhance: 0.26; KCNQ2 enhance baseline: -0.22

Cc1ccc(NC(=O)NCc2cccnc2)cc1C
  KCNQ2 enhance: 0.1; KCNQ2 enhance baseline: -1.6

COc1cccc(NC(=O)c2ccc3snnc3c2)c1
  KCNQ2 enhance: 0.48; KCNQ2 enhance baseline: -1.4

COC(=O)CC(NC(=O)c1cccs1)c1ccc(OC)c(OC)c1 (stereo not given)
  KCNQ2 enhance: 1.2; KCNQ2 enhance baseline: 0.45

CN(C)CCCOC(=O)c1ccc(Br)cc1
  KCNQ2 enhance: 2.3; KCNQ2 enhance baseline: -0.44

CCOC(=O)/C(C#N)=C/c1cn(CCC(=O)O)nc1-c1ccc(Br)cc1
  KCNQ2 enhance: 1.2; KCNQ2 enhance baseline: -0.13

Cc1c(C#N)c(O)n(CCO)c(=O)c1N=Nc1ccc2c(c1)COC2=O
  KCNQ2 enhance: 0.14; KCNQ2 enhance baseline: 0.41

Cc1nn(-c2cccc([N+](=O)[O-])c2)c(N)c1-c1ccccc1
  KCNQ2 enhance: 0.73; KCNQ2 enhance baseline: 0

O=C(CSc1nnc(CNC(=O)c2c(F)cccc2Cl)o1)Nc1ccccc1
  KCNQ2 enhance: 0.36; KCNQ2 enhance baseline: 0.05

N#Cc1cc([N+](=O)[O-])ccc1N1CCCC1
  KCNQ2 enhance: 0.97; KCNQ2 enhance baseline: -0.62

O=C(COc1ccccc1)OCC(=O)N1CCCc2ccccc21
  KCNQ2 enhance: 1.2; KCNQ2 enhance baseline: -0.11

CCOc1ccc(OCCC(=O)N2CCc3cc(OC)c(OC)cc3C2)cc1
  KCNQ2 enhance: 0.97; KCNQ2 enhance baseline: -3

C=CCNC(=O)C1CCN(c2nc(C)cc(-c3ccccc3)n2)CC1
  KCNQ2 enhance: 0.05; KCNQ2 enhance baseline: -1.6

O=C(NCCCn1ccnc1)c1nn2c(C(F)(F)F)cc(-c3ccccc3)nc2c1Cl
  KCNQ2 enhance: 2.2; KCNQ2 enhance baseline: -0.23

O=c1c(Cl)c(N2CCOCC2)cnn1-c1nc2ccccc2[nH]1
  KCNQ2 enhance: 1.6; KCNQ2 enhance baseline: 0.06

Cc1noc(C)c1S(=O)(=O)N1CCCC(C(=O)NCc2ccccn2)C1 (stereo not given)
  KCNQ2 enhance: 0.07; KCNQ2 enhance baseline: -0.07

COc1ccccc1CC(=O)NC1CCC(C)CC1 (stereo not given)
  KCNQ2 enhance: 1.8; KCNQ2 enhance baseline: 0.37

O=C(N/N=C/c1cccc2cccnc12)[C@H]1C[C@@H]1c1ccccc1
  KCNQ2 enhance: 0.36; KCNQ2 enhance baseline: 1.6

COC(=O)Cn1c(C(O)c2ccccc2)nc2ccccc21 (stereo not given)
  KCNQ2 enhance: 0.01; KCNQ2 enhance baseline: -2.2

Cc1ccc(C(=O)c2c[nH]cc2-c2ccccc2)cc1
  KCNQ2 enhance: 0.44; KCNQ2 enhance baseline: 1.1

Cc1ccc(OCCNC(=O)CNC(=O)c2ccc3c(c2)OCO3)cc1
  KCNQ2 enhance: 0.22; KCNQ2 enhance baseline: 2.2

Cc1cc(C)c(OCC(=O)Nc2ccc3c(c2)OCO3)cc1C
  KCNQ2 enhance: 0.99; KCNQ2 enhance baseline: 0.16

CCOc1ccc(S(=O)(=O)N2CCCC(C(=O)N3CCOCC3)C2)cc1 (stereo not given)
  KCNQ2 enhance: 1.2; KCNQ2 enhance baseline: -0.98

CC(NC(N)=O)C(=O)Nc1ccc(Cl)c(S(=O)(=O)Nc2ccc(Br)cc2)c1 (stereo not given)
  KCNQ2 enhance: 0.81; KCNQ2 enhance baseline: -0.42

OC(c1ccccc1)c1ccncc1 (stereo not given)
  KCNQ2 enhance: 0.12; KCNQ2 enhance baseline: 0.03

N#Cc1c(-c2ccccc2)ccnc1N1CCOCC1
  KCNQ2 enhance: 2; KCNQ2 enhance baseline: -0.95

Cc1nc2c(cnn2-c2ccc(Cl)cc2)c(=O)n1-c1ccc(N2CCC(C)CC2)cc1
  KCNQ2 enhance: 1.1; KCNQ2 enhance baseline: 0.27

COc1cccc2c1CCC(NC(C)=O)C2=O (stereo not given)
  KCNQ2 enhance: 1.6; KCNQ2 enhance baseline: 0.02

COCc1ccc(C(=O)N2CCCC(CNC(=O)c3ccc(F)cc3)C2)o1 (stereo not given)
  KCNQ2 enhance: 1.3; KCNQ2 enhance baseline: -0.69
